# High-throughput results from PubChem BioAssay.
# KAT2A inh = qHTS Assay for Inhibitors of GCN5L2. GCN5L2 HAT assay, ThioGlo1 CoA-SH fluorescence. Potency, µM (doses to about 58.9 µM), without a hit: at the highest dose activity change, negative = inhibition, hits mostly inhibitors. 390,000 compounds, 0.21% hits. AID 504327, 2011
# Target sequence (Q92830 whole entry, looked up): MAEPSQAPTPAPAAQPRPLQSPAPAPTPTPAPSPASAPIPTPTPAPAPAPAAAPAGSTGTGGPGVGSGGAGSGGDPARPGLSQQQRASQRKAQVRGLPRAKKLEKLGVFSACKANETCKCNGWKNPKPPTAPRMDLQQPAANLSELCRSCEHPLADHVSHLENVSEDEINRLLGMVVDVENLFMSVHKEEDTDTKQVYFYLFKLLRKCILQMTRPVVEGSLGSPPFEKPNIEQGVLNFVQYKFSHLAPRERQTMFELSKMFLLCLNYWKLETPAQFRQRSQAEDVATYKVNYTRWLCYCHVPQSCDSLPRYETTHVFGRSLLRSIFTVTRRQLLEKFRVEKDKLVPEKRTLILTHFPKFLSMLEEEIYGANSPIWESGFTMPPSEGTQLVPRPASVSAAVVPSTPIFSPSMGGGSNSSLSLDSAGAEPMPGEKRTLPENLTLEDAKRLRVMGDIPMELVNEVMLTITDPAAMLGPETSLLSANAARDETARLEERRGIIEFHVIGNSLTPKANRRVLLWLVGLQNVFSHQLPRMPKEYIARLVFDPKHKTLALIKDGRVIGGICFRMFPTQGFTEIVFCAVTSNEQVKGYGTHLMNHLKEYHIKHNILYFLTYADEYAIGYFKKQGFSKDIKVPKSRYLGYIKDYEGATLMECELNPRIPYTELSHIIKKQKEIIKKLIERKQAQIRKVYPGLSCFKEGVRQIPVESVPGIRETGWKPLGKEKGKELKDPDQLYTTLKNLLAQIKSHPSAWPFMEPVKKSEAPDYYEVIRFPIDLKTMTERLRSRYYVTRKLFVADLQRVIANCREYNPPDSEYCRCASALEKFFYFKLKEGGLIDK
#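 GCN5L2 (20 nM) in 50mM HEPES pH 7.5, 0.1mM EDTA, 0.01% Tween-20 preincubated 15 min with compounds at room temperature. Reaction started with H3(1-25) 75uM, acetyl-CoA 70uM, ThioGlo1 50uM; CoA-thiol fluorescence (Ex340/Em540) read at 0 and 20 min.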
# N370S GC mod = qHTS Assay for Inhibitors and Activators of N370S glucocerebrosidase as a Potential Chaperone Treatment of Gaucher Disease; Potency, µM (titrated, usually from 59.4 µM), for inactives: at the top dose activity change, negative = inhibition, actives largely listed as inhibitors; AID 2101, 2009; 330,000 compounds, 0.092% hits; Lysosomal acid glucosylceramidase (Homo sapiens), P04062; N370S GC spleen homogenate, 4MU-glucoside fluorescence;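 note: 0% = full enzyme activity and -100% = no enzyme basal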
# * marks the source's active call; other numbers are inactive results; u = inconclusive; x = not tested or not shown. Calls come from the whole dose curve; as a rule, active = well fitted curve in the direction sought with a large enough effect; inconclusive = small, poorly fitted or top-dose-only effect, or another doubt; inactive = no such curve, though single readings can be large; an effect the other way counts as inactive or inconclusive. Unless noted, % is set by controls: 0 for no effect and ±100 for the full control effect; potency is the fitted concentration of half-maximal effect. An excerpt, and most or all hits are left out here.
KAT2A inh,N370S GC mod,Compound
0%,3%,Cn1nc(C(F)(F)F)c(/C=N/OC(=O)c2ccc(Cl)cc2)c1Cl
0%,-3%,O=C(Nc1cccc(C(=O)O)c1)/C(=C\c1ccco1)NC(=O)c1ccccc1Cl
-3%,1%,Cc1cc(C)cc(NC(=O)CSc2nc(N)c(NC(=O)c3cccs3)c(=O)[nH]2)c1
-1%,11%,O=C(CSc1nnnn1-c1ccc2c(c1)OCCO2)c1cccc2c1OCCO2
-1%,4%,CCc1ccc(NC(=O)CSc2nc3[nH]ncc3c(=O)[nH]2)cc1
1%,-15%,Cc1cc(C(=O)N/N=C2\CC(=O)CC(C)(C)C2)c(C)n1-c1ccc(F)cc1
2%,25%,COc1ccccc1N(CC(=O)NCc1ccccc1)C(=O)CCC(=O)Nc1cc(C)ccn1
-27%,1%,CCCC(=O)N1CC2(CCC)CN(C(=O)CCC)CC(CCC)(C1)C2=O
0%,0%,Cc1ncc(CCl)c2c1OC(C)(C)OC2
-6%,2%,CCOC(=O)C(C(C)C)C(N)Cc1ccc(F)cc1 (stereo not drawn)
-2%,8%,COC(=O)c1cnn(-c2ccccc2)c1-n1cccc1C=O
-11%,0%,CCOc1ccc(C(C)=O)cc1CSc1nnc(-c2ccncc2)n1CCOC
0%,x,COc1ccc(-c2cn3nc(C)c(C)nc3n2)cc1OC
1%,4%,N#CCSc1nnc(Cc2ccc3c(c2)OCO3)o1
u,5%,COc1ccc(-n2c(C)nn(C)c2=O)cc1
-3%,-10%,COc1ccccc1N1CCN(CC(O)COc2ccc(C)cc2C)CC1 (stereo not drawn)
-3%,-2%,COc1ccc(CNC(=O)COC(=O)c2cccs2)cc1
-4%,-2%,CN(C(=O)CN1C(=O)S/C(=C\c2cccc(Cl)c2)C1=O)C1CCS(=O)(=O)C1 (stereo not drawn)
-3%,-3%,CC(C)c1ccc(N(C(=O)c2csnn2)C(C(=O)NC2CCCC2)c2ccncc2)cc1 (stereo not drawn)
7%,9%,CCN(CC(=O)Nc1cccc(S(N)(=O)=O)c1)Cc1nc2ccccc2c(=O)[nH]1

KAT2A inh,N370S GC mod,Compound
2%,5%,CCn1c2ccccc2c2nnc(SCC(=O)Nc3ncccn3)nc21
-13%,-1%,Cc1cc2c(C)c(C)c(=O)[nH]c2cc1N
3%,5%,Cc1c(C)c2ccc(OCC(=O)Nc3cccnc3)c(C)c2oc1=O
u,1%,Cc1cc(-c2nnc(CCC(=O)NC(c3ccccc3)c3ccccc3)o2)no1
u,0%,Cc1nn(-c2ccc(F)cc2)c(N)c1C1(O)C(=O)Nc2ccccc21 (stereo not drawn)
-3%,6%,CNC(=O)C(C)N1c2cccc3cccc(c23)S1(=O)=O (stereo not drawn)
-2%,3%,CC1CC1C(=O)OCc1cc(=O)n2cc(Br)ccc2n1 (stereo not drawn)
-8%,3%,c1cnc(Oc2ccc3oc4ccccc4c3c2)nc1
-2%,-2%,COc1ccc(C(=O)NC(=S)N2CCCCC2c2cccnc2)cc1OC (stereo not drawn)
-9%,-6%,COCC(=O)N1CCC(Oc2ccc(C(=O)N3C[C@@H]4CCC[C@H]3C4)cc2)CC1
-12%,1%,COC(=O)Cc1cnc(NC(=O)C2C3CCC(C3)C2C(=O)O)s1 (stereo not drawn)
-6%,6%,O=C1CCCc2[nH]nc(-c3cccnc3)c21
-17%,-15%,COc1c2occc2cc2ccc(=O)oc12
-5%,-11%,Cc1ccc(NC(=O)COC(=O)c2ccnn2C)cc1
-12%,-18%,CC1CCC(C(C)C)C(OC(=O)COC(=O)c2cc(O)ccc2N)C1 (stereo not drawn)
-1%,-17%,O=C(NCCCO)/C(=C/c1ccc(-c2cccc([N+](=O)[O-])c2)o1)NC(=O)c1ccccc1
-16%,u,CCOc1ccc(S(=O)(=O)Nc2ccc(C(=O)NCC(c3ccco3)N3CCCCC3)cc2)cc1 (stereo not drawn)
u,-12%,CN1CCC(=C2c3ccccc3C=Cc3ccccc32)CC1
-6%,9%,COc1ccc(CC(=O)N2CC3(C)CC2CC(C)(C)C3)cc1 (stereo not drawn)
-1%,3%,CCOC(=O)c1c(C)nc2c(c1-c1ccc(OC)c(OC)c1)C(=O)c1ccccc1-2

KAT2A inh,N370S GC mod,Compound
-8%,4%,CCN(CC)CCSc1nc(O)c(C(C)C)c(=O)[nH]1
1%,2%,COc1ccc(C(=O)NC(=S)Nc2ccc3oc(=O)ccc3c2)cc1OC
-2%,6%,CC(C)OC(=O)c1c(-c2ccc(C(C)C)cc2)csc1NC(=O)C1CCCO1 (stereo not drawn)
-5%,-7%,COc1ccc(NC(=O)c2ccc[n+]([O-])c2)cc1
-1%,-2%,C/C(=N\NC(=O)c1c(Cl)c(C)nn1C)c1ccc(NC(=O)C2CCC2)cc1
-11%,-6%,CC1CCN(Cc2c(C(=O)N/N=C/c3cccc(Cl)c3)nnn2-c2nonc2N)CC1
0%,-17%,CCCCOC(=O)n1c(=O)oc2ccc(S(=O)(=O)N3CCCCC3)cc21
-8%,-4%,COc1ccccc1NC(=O)c1cc(S(=O)(=O)N2CCC3(CC2)OCCO3)ccc1F
-9%,-13%,Cc1cccc(C)c1NC(=O)CNC(=O)c1c(C)nn(-c2ccccc2)c1C
-2%,-2%,CN(CC(=O)N1CCN(c2ccccn2)CC1)S(=O)(=O)c1ccc(Cl)cc1
-12%,17%,CCCN(CCO)CCCc1ccccc1
-2%,-8%,COc1ccc(Cc2nc3ccc(C(=O)NCCn4cccn4)cc3o2)cc1
-1%,-23%,Cc1cc(-c2nc(C)c(C(=O)NNS(=O)(=O)c3cccc(C(F)(F)F)c3)s2)no1
-7%,5%,CCCC(CCC)=NNC(=O)CN(Cc1ccccc1)S(=O)(=O)c1ccccc1
2%,-13%,COc1ccc([N+](=O)[O-])cc1NC(=O)C(C)OC(=O)Cn1[nH]c(=O)c2ccccc2c1=O (stereo not drawn)
3%,3%,CCOc1ccc(C(=O)NC(=S)NCc2cccnc2)cc1[N+](=O)[O-]
-8%,-7%,C=C(C)CSc1nnc([C@H](CCSC)NC(=O)OC(C)(C)C)o1
5%,2%,Cc1cc(NC(=O)CCCn2nc([N+](=O)[O-])c(Cl)c2C)no1
-4%,-13%,CCCS(=O)(=O)N1CCCC(C(=O)N2CCN(c3ccccn3)CC2)C1 (stereo not drawn)
1%,u,CC1CN(C(=O)CCNC(=O)c2ccc(Br)cc2)CC(C)O1 (stereo not drawn)

# Another view of some results above.
structure	KAT2A inh	N370S GC mod
COc1ccccc1N(CC(=O)NCc1ccccc1)C(=O)CCC(=O)Nc1cc(C)ccn1	2%	25%
CCCC(=O)N1CC2(CCC)CN(C(=O)CCC)CC(CCC)(C1)C2=O	-27%	1%
Cc1ncc(CCl)c2c1OC(C)(C)OC2	0%	0%
CCOC(=O)C(C(C)C)C(N)Cc1ccc(F)cc1 (stereo not drawn)	-6%	2%

# Two compounds picked at random from those above:
KAT2A inh,N370S GC mod,Compound
-7%,5%,CCCC(CCC)=NNC(=O)CN(Cc1ccccc1)S(=O)(=O)c1ccccc1
-1%,-23%,Cc1cc(-c2nc(C)c(C(=O)NNS(=O)(=O)c3cccc(C(F)(F)F)c3)s2)no1

# New compounds follow:
KAT2A inh,N370S GC mod,Compound
-8%,x,COCCn1c(C)cc(C(=O)CN2C(=O)NC3(CCCCCC3)C2=O)c1C
-23%,-4%,CN(C)CCN1C(=O)C(=O)/C(=C(/O)c2ccc(S(=O)(=O)N3CCOCC3)cc2)C1c1ccc(F)cc1 (stereo not drawn)
-2%,-2%,Cc1ccc(C(=O)CSc2nc(N)cc(=O)[nH]2)cc1C
-6%,-2%,O=C(Nc1ccc(Cl)cc1)Nc1ccc2c(c1)OCO2
-15%,4%,CCC(=O)c1ccc(N2CCN(C(=O)COc3ccccc3F)CC2)c(F)c1
3%,8%,CC(=O)Nc1ccccc1OCC(=O)N(Cc1ccccc1)C(C)C
-7%,x,CCOc1ccc(NC(=O)C(CC(C)C)N2Cc3ccccc3C2=O)cc1 (stereo not drawn)
-7%,0%,CC(C)NC(=O)C(=O)NC1CCCCCC1
-4%,14%,CCOC(=O)c1c(NC(=O)CCC(=O)NCc2ccco2)sc2c1CCCC2
-3%,-21%,COc1ccccc1NC(=O)NC1CC(=O)N(c2ccc3c(c2)OCCO3)C1 (stereo not drawn)
-10%,1%,CN1CCN(C(=S)Nc2ccc(Cl)cc2)CC1
-4%,-7%,CNC(=O)c1ccc(-n2nc(C)cc2-c2ccccc2)cc1
-2%,3%,Cc1ccc(OCc2csc(N)n2)cc1
-1%,-2%,C=CCSc1nnc(NC(=O)CSc2nc3ccccc3[nH]2)s1
-7%,-7%,CC(NC(=O)CSC(=S)N1CCCC1)c1ccc(S(N)(=O)=O)cc1 (stereo not drawn)
1%,24%,COc1ccc(N2C(=O)/C(=C3/C=CC=CN3C)SC2=S)cc1
-1%,-1%,CN(C)c1ccc(C=Nc2cnn(C)c2C(N)=O)cc1
0%,3%,Cc1ccnc(SCCn2c(N3CCCCC3)nc3c2c(=O)n(C)c(=O)n3C)n1
-2%,-3%,CCc1noc(C)c1C(=O)Nc1nc(-c2ccc(OC)c(OC)c2)cs1
-9%,-2%,O=C(Nc1ccc(C(F)(F)F)cc1)C1CCCN1S(=O)(=O)c1cccc2cccnc12 (stereo not drawn)

# 6 entries from above, sorted by formula weight, ascending.
KAT2A inh,N370S GC mod,Compound
-10%,1%,CN1CCN(C(=S)Nc2ccc(Cl)cc2)CC1
-4%,-7%,CNC(=O)c1ccc(-n2nc(C)cc2-c2ccccc2)cc1
-8%,x,COCCn1c(C)cc(C(=O)CN2C(=O)NC3(CCCCCC3)C2=O)c1C
-4%,14%,CCOC(=O)c1c(NC(=O)CCC(=O)NCc2ccco2)sc2c1CCCC2
-9%,-2%,O=C(Nc1ccc(C(F)(F)F)cc1)C1CCCN1S(=O)(=O)c1cccc2cccnc12 (stereo not drawn)
-23%,-4%,CN(C)CCN1C(=O)C(=O)/C(=C(/O)c2ccc(S(=O)(=O)N3CCOCC3)cc2)C1c1ccc(F)cc1 (stereo not drawn)

# (list continues)
KAT2A inh,N370S GC mod,Compound
-8%,-3%,CS(=O)(=O)N1CCN(c2ccc(NC(=O)COc3ccccc3)cc2)CC1
-5%,1%,O=C1CN(C(=O)c2cccs2)c2ccccc2N1
-6%,-7%,Cn1c(=O)[nH]c(Nc2ccccc2)c([N+](=O)[O-])c1=O
-11%,x,CCOC(=O)c1[nH]cnc1C(=O)N[C@@H](C)c1ccccc1
1%,3%,CCC(c1nnnn1CCOC)N(Cc1ccc(C)cc1)Cc1cc2cc(OC)ccc2[nH]c1=O (stereo not drawn)
-6%,-1%,CCCc1nnc(NC(=O)CCC(=O)N2CCN(C3CCCC3)CC2)s1
9%,x,Cc1cc(Cl)ccc1NC(=O)C1CCCN1S(=O)(=O)c1ccc2c(c1)CCCC(=O)N2 (stereo not drawn)
-16%,8%,NNC(=O)CN1C(c2ccc(Br)cc2)=Nc2ccc(Br)cc2C1c1ccccc1 (stereo not drawn)
1%,8%,CCOC(=O)c1cnc2c(-c3ccc(Cl)cc3)c(C)nn2c1N
2%,-3%,C=CCn1c(SCC(=O)Nc2ccc(F)cc2)nc2ccccc2c1=O
-3%,7%,COc1ccc(C2(CN(C(C)=O)C(C)=O)CCCC2)cc1OC
-27%,-6%,COc1ccc(-c2nc(CSCC(=O)NCC3CCCO3)c(C)o2)cc1OC (stereo not drawn)
-3%,9%,CCCn1c2ccccc2c2cnn(CC(=O)NC3CCCCC3C)c(=O)c21 (stereo not drawn)
-5%,2%,Cc1ccc(S(=O)(=O)Nc2cccc(Cl)c2)cc1NC(=O)c1cccnc1
3%,-21%,Cc1cccc(CC(C)NC(=O)CCc2nnc(-c3ccccc3)o2)n1 (stereo not drawn)
2%,-2%,Cc1ccc(C(=O)N/C(=C\c2ccco2)C(=O)NCCN2CCCCC2)cc1C
-2%,x,O=C(COC(=O)c1ncc(Cl)c(Cl)c1Cl)NCc1ccccc1
-2%,-14%,NNC(=O)CSc1ncc(-c2ccccc2)[nH]1
-1%,2%,O=C(Nc1ccccc1)NC1(C(=O)N2CCN(C(=O)c3ccco3)CC2)CCCCC1
-2%,-4%,Cc1cc(C)c2c(c1)/C(=C/C(=O)c1ccc(Br)s1)C(=O)N2

KAT2A inh,N370S GC mod,Compound
-6%,3%,Nc1cc(N)nc(SCCOc2ccccc2)n1
-2%,-3%,O=C(Nc1nc(-c2cccnc2)cs1)c1ccccc1F
-1%,-5%,O=c1c2[nH]c3ccccc3c2ncn1Cc1ccccn1
-17%,12%,CC1CCCC(C)N1/N=C/c1ccccc1OC(F)F (stereo not drawn)
-18%,-16%,O=C1CSC(=S)N1c1cccc(Br)c1
-4%,5%,CCOc1ccc(OCC)c(NC(=O)CC2Oc3ccccc3NC2=O)c1 (stereo not drawn)
-10%,11%,C#CCNC(=O)c1ccc(OCc2ccccc2)cc1Cl
-11%,-1%,Cc1cccc(Oc2sc(C(=O)c3ccccc3)c(N)c2C#N)c1
25%,x,COc1ccccc1N1CCN(C(=O)CCn2nc(C)c(S(=O)(=O)N3CCCC3)c2C)CC1
-2%,-6%,Cc1cc(OCC(=O)C(C)(C)C)c2c(-c3ccccc3)cc(=O)oc2c1
-2%,x,CC(=O)Nc1nonc1-c1nnc(SCC(=O)N(C)c2ccccc2)n1C
-10%,x,O=C(c1ccccc1)N1CCCC(c2nc3c(nnn3Cc3ccc(F)cc3F)c(=O)[nH]2)C1 (stereo not drawn)
-4%,3%,Cc1onc(-c2ccccc2)c1C(=O)NNC(=S)NC(=O)/C=C/c1ccccc1
